# HSV replic up: HSV replication enhancement. 220,000 compounds, 0.005% hits. AID 1956. HSV replication augmentation in cells, fold increase. maximum fold increase;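 active = peak rise of 1.5-fold or more in the series; tested in PC3 cells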;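 also: first round at 10 µM; read as green reporter fluorescence; hits show the peak of a series up to 25 µM; 1 = signal of infected wells without compound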
# GALR2 ag: agonists of human galanin receptor 2 (GALR2); activation, %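 (tested at 5 µM)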; AID 803; GALR2-expressing cells, agonist activation read-out; 140,000 compounds, 0.48% hits; O43603;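 active = above mean plus 3 SD of all compounds, about 5% in these data, not always enough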;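 also: 0% = vehicle buffer wells and 100% = reference agonist at full effect; tested in CHO reporter cells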
# Target sequence (O43603 whole entry, looked up): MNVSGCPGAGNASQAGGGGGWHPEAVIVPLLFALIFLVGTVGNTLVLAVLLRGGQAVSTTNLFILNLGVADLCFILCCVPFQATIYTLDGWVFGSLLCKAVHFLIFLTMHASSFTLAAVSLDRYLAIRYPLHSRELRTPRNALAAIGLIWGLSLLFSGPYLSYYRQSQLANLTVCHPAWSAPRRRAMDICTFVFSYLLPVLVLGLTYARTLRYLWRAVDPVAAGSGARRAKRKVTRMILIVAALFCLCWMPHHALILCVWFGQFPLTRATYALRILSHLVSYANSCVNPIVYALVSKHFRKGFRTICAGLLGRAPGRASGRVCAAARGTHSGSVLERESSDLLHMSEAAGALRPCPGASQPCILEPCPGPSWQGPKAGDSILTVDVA
# RGS16-Gao: modulates binding between human RGS16 and Galphao. 220,000 compounds, 0.38% hits. binding response (% of control), % at 10 µM. O15492+P09471. bead-based flow cytometry RGS16-Galphao binding, fluorescence; actives lie on both sides;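 active = below 25% or above 175%, edge rows of some plates excepted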;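 also: Galphao activated by GDP with aluminum fluoride before binding; 100% = wells without compound and 0% = beads without RGS; some results beyond the cut were filed as inactive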
# Target sequence (O15492 whole entry, looked up): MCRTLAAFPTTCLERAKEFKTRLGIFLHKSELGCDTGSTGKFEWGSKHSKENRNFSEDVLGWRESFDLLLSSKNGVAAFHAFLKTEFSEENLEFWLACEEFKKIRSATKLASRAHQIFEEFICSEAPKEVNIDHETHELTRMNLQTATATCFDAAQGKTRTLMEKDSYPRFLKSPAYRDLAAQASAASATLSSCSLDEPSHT
# Target sequence (P09471 whole entry, looked up): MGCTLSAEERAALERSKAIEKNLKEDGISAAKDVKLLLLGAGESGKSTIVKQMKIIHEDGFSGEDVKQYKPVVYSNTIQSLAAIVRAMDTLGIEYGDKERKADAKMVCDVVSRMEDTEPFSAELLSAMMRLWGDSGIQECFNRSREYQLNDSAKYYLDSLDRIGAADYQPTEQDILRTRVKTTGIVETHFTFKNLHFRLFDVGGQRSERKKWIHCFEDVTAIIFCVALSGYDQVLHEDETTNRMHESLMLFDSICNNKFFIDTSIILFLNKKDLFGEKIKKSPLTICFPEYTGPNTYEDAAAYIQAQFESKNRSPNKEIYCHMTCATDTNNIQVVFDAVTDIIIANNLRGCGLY
# INS promoter inh: TRM-6 insulin promoter activity inhibition; inhibition, % at 2 µM; TRM-6 cells (human fetal islet line), insulin promoter-eGFP reporter, imaging; reporter expression induced with tamoxifen; 130,000 compounds, 0.9% hits;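 active = inhibition above the mean plus 3 SD, with well images judged a real hit on visual review, cut at about 60% in these data, passing the limit was not always enough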
# PKD1 kinase inh: inhibitors of human PKD1 kinase. Q15139. PKD1 kinase fluorescence polarization assay. inhibition, %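 (about 10 µM by stock and volumes)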. 200,000 compounds, 0.056% hits;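 active = inhibition of 50% or more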;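 also: controls were vehicle for no effect and a reference inhibitor for full effect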
# INS promoter inh cell count: also measured in INS promoter inh; calls as there; normalized cell count, %; measured here: cell count, toxicity; reference of the scale not given here;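 cells exposed to compound for 48 h; stained nuclei by imaging scaled within each plate; lower means fewer cells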
# HSV replic up primary fold: second read-out of HSV replic up, no call of its own (marks repeat the call); fold increase; compound at 10 µM; measured here: primary screen fold increase 10 uM; tested in PC3 cells;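 GFP signal in the first replicate; 1 = infected wells without compound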
# * marks the source's active call; other numbers are inactive results; i = inactive; / = not tested or not shown; [ ] = another dose, or the depositor's remark.
SMILES,HSV replic up,HSV replic up primary fold,GALR2 ag,RGS16-Gao,INS promoter inh,INS promoter inh cell count,PKD1 kinase inh
O=C(CN1C(=O)C(=O)c2ccccc21)OCN1C(=O)c2ccccc2C1=O,i,0.96,/,105,-20,51,-5
Cc1sc(NC(=O)C2CC=CCC2C(=O)O)c(C(=O)OC(C)C)c1C (centres undefined),i,1,-1.0,103,-17,119,5
CN(Cc1ccccc1)C(=O)CCn1c(=O)oc2ccccc21,i,0.73,-1.2,102,/,/,2
Cc1noc(C)c1S(=O)(=O)N1CCCC(C(=O)N2CCC(C)CC2)C1 (centres undefined),i,1,-2.5,93,/,/,6
O=C(N/N=C/c1ccc(Cl)cc1)c1n[nH]c2c1CCCC2,i,0.61,/,95,/,/,/
COC(=O)CNC(c1ccccc1)c1cc(Br)ccc1NC(=O)OCc1ccccc1 (centres undefined),i,0.9,-0.6,102,-25,101,-11
FC(F)(F)C(F)(F)C(F)(F)c1nnc2ccc(N3CCOCC3)nn12,i,0.92,-1.3,99,-38,155,0
COc1ccc(C(=O)NNC2=Nc3cccc4cccc2c34)cc1,i,1.1,/,103,-40,70,14
O=C(Cn1ccc([N+](=O)[O-])n1)Nc1ccccn1,i,1.1,/,100,/,/,-1
O=C(c1cccc(S(=O)(=O)N2CCc3ccccc32)c1)N1CCN(c2ccccn2)CC1,i,0.87,/,100,/,/,0

# 3 entries out of the list above, ordered by the value under RGS16-Gao, lowest first.
compound | HSV replic up | HSV replic up primary fold | GALR2 ag | RGS16-Gao | PKD1 kinase inh
Cc1noc(C)c1S(=O)(=O)N1CCCC(C(=O)N2CCC(C)CC2)C1 (centres undefined) | i | 1 | -2.5 | 93 | 6
O=C(N/N=C/c1ccc(Cl)cc1)c1n[nH]c2c1CCCC2 | i | 0.61 | / | 95 | /
FC(F)(F)C(F)(F)C(F)(F)c1nnc2ccc(N3CCOCC3)nn12 | i | 0.92 | -1.3 | 99 | 0

# Later entries.
SMILES,HSV replic up,HSV replic up primary fold,GALR2 ag,RGS16-Gao,INS promoter inh,INS promoter inh cell count,PKD1 kinase inh
CC1(c2cccc3ccccc23)NC(=O)N(CC(=O)NC2CCS(=O)(=O)C2)C1=O (centres undefined),i,0.98,0.0,103,/,/,7
Cc1ccc(NC(=S)Nc2ccc(Br)cc2)cc1,i,0.96,-0.8,99,-43,81,-3
CC1=CC(C)(C)N2C(=O)C3(C(C#N)=C(N)OC4=C3C(=O)CC(C)(C)C4)c3cc(C)cc1c32 (centres undefined),i,0.74,6.0,102,64,58,-10
CSc1cccc(NC(=S)N(CCC(C)C)C2CCN(C(C)=O)CC2)c1,i,1,/,107,53,139,-4
S=c1[nH]nc(-c2cc(-c3ccsc3)n[nH]2)n1-c1cccc2ccccc12,i,0.9,/,95,0,142,-2
CC(C)COC(=O)N1CCCC1C(=O)Nc1nccs1 (centres undefined),i,1,-1.1,105,/,/,-11
O=C(NCc1ccccc1)c1ccc(C(=O)N(C2CCCCC2)C2CCCCC2)cc1,i,0.89,-1.4,/,-48,48,-4
O=C(CSc1nnc(-c2ccccc2)n1-c1ccccc1)NCc1ccco1,i,0.87,-2.5,105,-29,169,-8
Cc1c(NC(=O)/C(C#N)=C/c2ccc(-c3cccc(Cl)c3)o2)c(=O)n(-c2ccccc2)n1C,i,0.9,-0.7,112,/,/,-11
N=c1ncn(CC(O)CO)c2nc(N3CCOCC3)[nH]c12 (centres undefined),i,1,-2.4,108,45,82,-4
O=C(c1n[nH]c(=O)c2ccccc12)N1CCN(c2ccc(F)cc2)CC1,/,/,-1.7,103,/,/,-18
CCOC(=O)C1CCN(C(=O)COC(=O)CCOc2ccc(C)cc2)CC1,i,0.93,-5.2,57,-45,84,-6
COc1ccc(C2=Nn3c(nnc3C3CCCCC3)SC2)cc1OC,i,0.73,1.9,102,14,54,0
OCCn1c(-c2ccc3c(c2)OCO3)csc1=Nc1ccccc1,i,1,-1.6,99,5,82,-3
Brc1ccc2nc(CSc3ncn[nH]3)cn2c1,i,0.93,-2.4,99,-23,76,-8
COc1ccccc1OCC(=O)NCCSCc1ccccc1Cl,i,0.92,-1.0,41,20,67,-7
O=C(Cn1c(=O)oc2ccccc21)Nc1n[nH]c(=S)s1,i,0.84,/,96,/,/,/
COc1ccc(NC(=O)c2ccc3c(c2)NC(=O)CS3)cc1S(=O)(=O)Nc1ccc(Br)cc1,i,0.62,/,86,-15,133,-6
COc1ccc(NC(=S)N(CCN2CCOCC2)C2CCN(C(C)=O)CC2)cc1Cl,i,1,/,99,-65,129,-1
O=C(Nc1ccc(-c2csc(Nc3cccc(C(F)(F)F)c3)n2)cc1)c1ccccc1,i,0.73,/,94,/,/,/
COC(=O)Nc1ccc(S(=O)(=O)N2CCCC(C(=O)N3CC(C)OC(C)C3)C2)cc1 (centres undefined),i,1.1,/,104,/,/,1
Nc1cc(C(=O)O)ccc1N1CCCCCC1,i,0.92,-3.9,102,-50,123,-10
Cc1c(C(=O)NCCc2ccccc2)oc2ccc(S(=O)(=O)N3CCOCC3)cc12,i,0.99,-1.3,96,/,/,-9
NC(=O)CCN(Cc1ccccc1)S(=O)(=O)c1ccccc1,i,0.71,-0.9,101,/,/,-12
COc1ccccc1OCc1ccc(C(=O)N2CCN(C(=O)c3ccco3)CC2)cc1,/,/,-0.6,103,24,80,-3
COc1ccc(NC(=O)CCN2C(=O)C3CC=C(Cl)CC3C2=O)cc1 (centres undefined),i,0.94,-2.2,53,-7,83,0
Cc1cc(Cl)ccc1C(=O)C1CCCN(C(=O)c2cc(C(C)C)no2)C1 (centres undefined),i,1,/,104,/,/,-6
CCCCNC(=O)C1CC(=O)N(c2ccc(OC)cc2)C1c1ccc(OC)cc1 (centres undefined),i,0.99,-1.3,102,13,193,-8
CN(C)c1ccc(/C=C(\Cl)c2nc3ccccc3s2)cc1,i,1.1,3.1,106,-48,118,1
Cc1cc2nc(CCN3CCOCC3)n(S(=O)(=O)c3ccc(C(C)(C)C)cc3)c2cc1C,i,0.89,-1.6,111,86*,73*,2
Cc1ccc(CNS(=O)(=O)N(C)C)cc1,i,0.84,-1.0,109,43,76,-4
CCOC(=O)C1(CCc2ccccc2)CCN(C(=O)c2cc(C)nc(C)n2)CC1,i,1.1,/,91,/,/,4
O=C(c1ccccc1-c1ccccc1)N1CCCCC1,i,1.1,/,101,/,/,1
O=C(COC(=O)c1cccs1)Nc1cccc(S(=O)(=O)NC2=NCCCCC2)c1,i,0.81,/,92,-28,88,-4
Cc1cc(C)n(-c2nnc(C)n2/N=C/c2ccco2)n1,i,0.69,-1.6,92,52,85,1
Oc1ccc(C=NC2CCCCC2)c(O)c1,i,1,/,118,7,81,3
CN(N=Nc1ccc([N+](=O)[O-])cc1)c1ccccc1,i,0.99,1.4,90,42,144,6
COc1ccc(OC)c(C2C(C#N)=C(N)Oc3cc(N)ccc32)c1 (centres undefined),i,0.94,-1.0,107,37,82,2
COc1ccc(C2C(C(=O)Nc3cc(C)on3)c3ccccc3C(=O)N2C)cc1OC (centres undefined),i,0.87,-1.3,98,-50,145,-3
N/C(CN1CCSCC1)=N\OCc1c(F)cccc1Cl,i,0.92,/,98,/,/,/
CC(C)(Oc1ccc(Cl)cc1)C(=O)N1CCC(C(N)=O)CC1,i,1,/,103,/,/,0
CCOc1ccc2nc(NCCCO)[nH]c2c1,i,0.75,-1.8,116,-36,92,-2
Cc1ccc2c(c1)nnn2C1CCN(CC(=O)N(c2ccccc2)c2ccccc2)CC1,i,1.1,/,100,/,/,/
Cc1ccc2cc(C)c(SCC(=O)NCc3ccco3)nc2c1,i,0.96,/,109,/,/,-9
Cc1nnc(N(Cc2ccccc2)C(=O)c2cnccn2)s1,i,1.1,-2.5,113,-26,104,1
O=C1NC(=Nc2ccccc2)S/C1=C/c1cccs1,i,0.98,/,63,27,58,10
CN1CCN(C(=O)C2=C[C@@H](c3ccccc3)C[C@@H](OCCCCO)O2)CC1,i,0.91,/,106,/,/,0
CCOC(=O)c1c(NC(=O)c2cc(-c3ccc(O)cc3)on2)sc(C(C)=O)c1C,/,/,-0.4,344*[activator],0,89,-7
CCOC(=O)c1cnc(-n2cc(C)cn2)nc1Nc1ccccc1OC,i,0.76,-2.1,101,14,113,-5
Cc1nc(N2CCN(c3ccccc3)CC2)[nH]c(=O)c1Cc1ccccc1,i,0.79,-2.1,88,12,112,1

# (listing goes on)
SMILES,HSV replic up,HSV replic up primary fold,GALR2 ag,RGS16-Gao,INS promoter inh,INS promoter inh cell count,PKD1 kinase inh
COc1ccc(/C=N/Nc2ncnc3sc4c(c23)CCCC4)cc1O,/,/,-1.5,81,-8,82,-11
NC(=O)[C@H]1CC2(CC(c3cccc(NC(=O)[C@H]4CCC(=O)N4)c3)=NO2)CN1C(=O)CC(c1ccccc1)c1ccccc1 (some centres undefined),i,0.95,/,101,/,/,/
Cn1cccc1Cc1nnc(SCC(=O)NCCc2ccccc2)n1-c1ccc(F)cc1,i,0.95,-1.9,97,/,/,-8
CCCCC1=CC2=CC(=O)C(C)(OC(=O)CC)C(=O)C2=CN1Cc1ccco1 (centres undefined),i,0.96,/,99,/,/,/
Cc1cccc(CC(=O)Nc2cc(C)c3c(=O)oc4ccccc4c3n2)c1,i,0.83,-2.8,91,/,/,1
O=C(O)/C=C/c1cn(Cc2ccccc2Cl)nc1-c1ccccc1,i,1,/,104,/,/,/
CCO/C=C1/C(=O)N(C)C(=O)c2cc(OC)ccc21,i,0.99,1.8,43,21,122,-7
COC(=O)c1sccc1NC(=O)CSc1cc(Cl)ccc1Cl,i,0.95,1.3,97,-2,61,8
O=C(Nc1ccccn1)c1sc2cccc(F)c2c1Cl,i,0.95,/,102,29,120,-3
COc1cc(OC)c(OC)cc1CNC1CCCCCC1,i,1.1,-3.7,87,48,63,-10
Cc1c(C(C)O)nnn1-c1nonc1N (centres undefined),i,0.93,-1.7,82,14,90,6
CCOc1ccc(S(=O)(=O)N/N=C(\C)Cc2ccc(OC)cc2)cc1,i,1,/,99,/,/,-2
O=C(Nc1c(F)cc(F)cc1Br)c1cc(-c2ccc(O)cc2)on1,i,0.95,0.2,100,/,/,-12
O=C(c1cnc2n(c1=O)CCS2)N1CCN(c2ccccc2Cl)CC1,i,0.91,/,97,/,/,-4
O=C(Nc1ccccc1)Nc1cc(OCC(F)(F)F)cc(OCC(F)(F)F)c1,i,0.61,-1.7,200,45,77,-3
Cc1[nH]nc2c1C(C(C)c1ccccc1)C(C#N)=C(N)O2 (centres undefined),i,0.9,/,102,31,95,-3
Cc1cc(-c2ccccc2)oc(=O)c1NC(=O)c1ccccc1,i,0.86,/,102,/,/,-1
C=C(C)CC(NCc1ccco1)c1ccc(OC)cc1 (centres undefined),i,0.9,-2.5,98,17,37,-2
CN=c1scc(-c2cccs2)n1/N=C/c1ccccc1O,i,1,-2.8,32,33,64,-5
C=CCNC(=O)C1CCN(c2cc(C)nc(-c3ccccc3)n2)CC1,i,0.98,/,107,/,/,0

# Some of the entries above in another layout.
Molecule: CN=c1scc(-c2cccs2)n1/N=C/c1ccccc1O
  HSV replic up: i | HSV replic up primary fold: 1 | GALR2 ag: -2.8 | RGS16-Gao: 32 | INS promoter inh: 33 | INS promoter inh cell count: 64 | PKD1 kinase inh: -5
Molecule: C=CCNC(=O)C1CCN(c2cc(C)nc(-c3ccccc3)n2)CC1
  HSV replic up: i | HSV replic up primary fold: 0.98 | GALR2 ag: / | RGS16-Gao: 107 | INS promoter inh: / | INS promoter inh cell count: / | PKD1 kinase inh: 0

# (listing goes on)
SMILES,HSV replic up,HSV replic up primary fold,GALR2 ag,RGS16-Gao,INS promoter inh,INS promoter inh cell count,PKD1 kinase inh
CC(C)(C)C1=Nn2c(nnc2C2CCCCC2)SC1,i,1.1,1.0,97,-57,82,14
CCn1c(C)nc2cc(C(=O)NNC(=O)Nc3ccc(Cl)cc3)ccc21,i,0.93,/,104,65,90,0
O=C(CC1C(=O)NCCN1Cc1cccc(Oc2ccccc2)c1)NCCc1ccccn1 (centres undefined),i,0.97,/,99,/,/,-3
COc1ccc(OC)c(C(=O)N2CCC(C(=O)c3ccc(F)cc3)CC2)c1,i,0.85,-2.3,90,20,124,-6
Clc1ccc2c(c1)C(N1CCNCC1)Cc1ccccc1S2 (centres undefined),/,/,-1.1,102,i,30,9
Cc1cc(=O)oc(C)c1C(=O)OC(C(=O)c1ccccc1)c1ccccc1 (centres undefined),i,0.93,-0.5,102,-29,146,6
CC(C)OCCCNC(=O)c1cc(Sc2ccc(F)cc2)nc2ccccc12,i,0.95,-1.0,95,-65,96,-1
Cc1cc(C)nc(N2CCC(C(=O)Nc3ccc4c(c3)OCCO4)CC2)n1,i,1,/,100,-25,51,10
